StopGo RLuc – FMDV 2A StopGo reporter, Renilla signal; hit rate 0.32% among 120,000; Potency, µM (series often up to 57.5 µM), without a hit: at the top dose signal change, negative = less light; AID 1745857; HEK cells with a luciferase reporter of 2A StopGo recoding; active means well fitted falling curve with a large enough effect; inconclusive means small, poorly fitted or top-dose-only effect; inactive means no such curve, though single readings can be large or run the other way; further: nearly all actives have a fitted effect of over 55% in size; overnight with compound
2A firefly – lowers the firefly signal of an FMDV 2A StopGo reporter; HEK cells with a luciferase reporter of 2A StopGo recoding; Potency, µM (series often up to 57.5 µM), for the others: top-dose signal change, negative = less light; hit rate 0.23% among 120,000; AID 1745856; active = well fitted falling curve with a large enough effect; inconclusive = small, poorly fitted or top-dose-only effect; inactive = no such curve, though single readings can be large or run the other way; further: nearly all actives have a fitted effect of over 60% in size; overnight with compound
An asterisk follows results filed as active; [ ] = dose if it differs, or a comment. On the % scale 0 is the no-effect control and ±100 the full control effect; potency means the concentration at half of the fitted maximal effect. Not all compounds are listed (hit frequency here may not be typical).

How did CCCCC12CN3CC(C)(CN(C1)C3c1ccc(O)c(OC)c1)C2=O (centres undefined) do in these assays?
StopGo RLuc: 4%; 2A firefly: -12%

Results for O=C1CCC(C(=O)OCc2ccc(F)cc2)=NN1 ?
StopGo RLuc: -1%; 2A firefly: -5%

How did CCC(Sc1nc2nccnc2c(=O)n1CCc1ccccc1)C(=O)Nc1cccc(OC)c1 (centres undefined) do in these assays?
StopGo RLuc: 7%; 2A firefly: 7%

What do the screens show for `Cc1ccc(S(=O)(=O)Cc2nc(-c3ccc(C(=O)NCc4ccccc4)cc3)oc2C)cc1`?
StopGo RLuc: -11%; 2A firefly: 3%

Results for Cc1cc(=O)n2c(C(=O)Nc3ccc(F)c(Cl)c3)c(C(=O)Nc3cccc(C)c3C)sc2n1 ?
StopGo RLuc: 3%; 2A firefly: -18%

What do the screens show for `O=C(Nc1ccc2[nH]c(=O)[nH]c2c1)c1nn(-c2ccccc2Cl)c2c1CCCC2`?
StopGo RLuc: -12%; 2A firefly: -9%

Results for COc1ccc(N2CCN(C(=O)CCNS(=O)(=O)c3ccc4c(c3)CCN4C(=O)C3CC3)CC2)cc1 ?
StopGo RLuc: 9%; 2A firefly: 11%

How did Cc1cc(C)c(/C=C/C(=O)O)cc1C do in these assays?
StopGo RLuc: 10%; 2A firefly: 0%

Results for COc1ccc(NC(=O)CSc2nc3c(c(=O)[nH]2)CN(Cc2ccccc2)CC3)cc1Cl ?
StopGo RLuc: -7%; 2A firefly: -8%

What do the screens show for `O=C(CSc1nc2c(c(=O)[nH]1)CN(Cc1ccc3c(c1)OCO3)CC2)Nc1ccc(F)c(F)c1`?
StopGo RLuc: 17%; 2A firefly: 16%

Results for Cc1ccc(Nc2c(-c3ccc(N(C)C)cc3)nc3nc[nH]n23)cc1 ?
StopGo RLuc: 10%; 2A firefly: 127%[activator]

What do the screens show for `CCS(=O)(=O)c1nc(S(=O)(=O)c2ccc(C)cc2)c(NC)s1`?
StopGo RLuc: 16%; 2A firefly: -17%

Results for Cc1ccc(C)c(-c2nn(CC(=O)Nc3cc(F)ccc3F)c(=O)c3c2CCCC3)c1 ?
StopGo RLuc: -2%; 2A firefly: -11%

Results for Fc1cccc(C=Nc2cccc3c(N=Cc4cccc(F)c4)cccc23)c1 ?
StopGo RLuc: -6%; 2A firefly: 35%[activator]

What do the screens show for `CCc1ccc(C(=O)COC(=O)c2ccc(S(=O)(=O)NCc3ccco3)cc2)cc1`?
StopGo RLuc: -7%; 2A firefly: 4%

How did COc1ccccc1/C=C/c1onc(C)c1S(=O)(=O)N1CCC(C(=O)N2CCC(C)CC2)CC1 do in these assays?
StopGo RLuc: -3%; 2A firefly: -8%

How did C#CC[N+]1(C)C(C)CCCC1C (centres undefined) do in these assays?
StopGo RLuc: -1%; 2A firefly: inconclusive

What do the screens show for `CCOc1ccc(NC(=O)CN2C(=O)COc3ccc(S(=O)(=O)NC4CCCC4)cc32)cc1`?
StopGo RLuc: 94%[activator]; 2A firefly: 0%

How did COc1cccc(Nc2c3c(nc4nncn24)CCC3)c1 do in these assays?
StopGo RLuc: 4%; 2A firefly: 3%

What do the screens show for `CN(Cc1cccs1)C(=O)CC1CCCC1`?
StopGo RLuc: 9%; 2A firefly: 0%

Results for O=C(CCN=C1NS(=O)(=O)c2ccccc21)NCCc1ccccn1 ?
StopGo RLuc: -5%; 2A firefly: -2%

How did Cc1ccccc1CNC(=O)c1ccc(Nc2cc(-c3ccc(F)cc3)ncn2)cc1 do in these assays?
StopGo RLuc: 2%; 2A firefly: 6%

What do the screens show for `CC1CCN(S(=O)(=O)c2ccc3c(c2)CCN3C(=O)Nc2ccc(Br)cc2F)CC1`?
StopGo RLuc: -1%; 2A firefly: 9%

Results for O=C(CN1C=NS(=O)(=O)c2ccccc21)Nc1ccccc1F ?
StopGo RLuc: -4%; 2A firefly: -6%

Results for Cc1ccccc1NC(=O)Cn1c(=O)n(Cc2ccco2)c(=O)c2ccc(C(=O)NC3CCCC3)cc21 ?
StopGo RLuc: -10%; 2A firefly: 0%

Results for COc1ccc(NC(=O)c2sc(-n3[nH]c(C)c(CCC(C)C)c3=O)nc2C)cc1 ?
StopGo RLuc: -7%; 2A firefly: 34%[activator]

What do the screens show for `Clc1ccc(C(OCCN2CCCCC2)c2ccccc2)cc1` (centres undefined)?
StopGo RLuc: -12%; 2A firefly: -17%[11.5 µM]

How did C#CCn1cnc2c(cnn2-c2ccc(F)cc2)c1=O do in these assays?
StopGo RLuc: -6%; 2A firefly: 12%

Results for COc1ccc(-c2cc(C(=O)NCC3CCCO3)c3ccccc3n2)cc1 (centres undefined) ?
StopGo RLuc: 28%; 2A firefly: 0%

How did COc1ccccc1N1CCN(S(=O)(=O)c2cc(-c3cc(C)no3)ccc2C)CC1 do in these assays?
StopGo RLuc: -2%; 2A firefly: -9%

Results for COC(=O)c1sccc1S(=O)(=O)N(CC(=O)NCc1ccc(F)cc1)c1ccc(Cl)cc1 ?
StopGo RLuc: 147%[activator]; 2A firefly: -30%

Results for Cc1cccc(OC(=O)c2ccccc2I)c1C ?
StopGo RLuc: 8%; 2A firefly: 0%

What do the screens show for `O=C(CN(c1cc(Cl)cc(Cl)c1)S(=O)(=O)c1ccccc1)N1CCCC1`?
StopGo RLuc: 80%[activator]; 2A firefly: 7%

What do the screens show for `COc1ccc(CCNC(=O)c2cc(=O)[nH]c3ccc(S(=O)(=O)N4CCCCC4)cc23)cc1OC`?
StopGo RLuc: -5%; 2A firefly: -10%

What do the screens show for `O=C(NCc1cccc(Cl)c1)C1CCN(c2nn3cc(-c4ccc(F)cc4)nc3s2)CC1`?
StopGo RLuc: -11%; 2A firefly: 102%[activator]

Results for O=C(NC1CC(=O)N(c2ccc(Cl)cc2)C1)c1cc2ccccc2o1 (centres undefined) ?
StopGo RLuc: -8%; 2A firefly: -13%

Results for Cc1cc(NC2CCCCC2)c2ccccc2n1 ?
StopGo RLuc: -3%; 2A firefly: -4%

What do the screens show for `Oc1ccc(-c2nc(-c3ccccc3)c(-c3ccc(Br)cc3)[nH]2)cc1`?
StopGo RLuc: -6%; 2A firefly: 5%

How did COc1cc2oc(=O)c(CC(=O)NCc3ccc(OC)c(OC)c3)c(C)c2cc1Cl do in these assays?
StopGo RLuc: -1%; 2A firefly: -5%

What do the screens show for `O=C(/C=C/c1ccccc1Cl)c1cc(Br)ccc1O`?
StopGo RLuc: 36%[activator]; 2A firefly: 52%[activator]

How did COc1ccc(CCNc2nc(-c3ccccc3)cs2)cc1OC do in these assays?
StopGo RLuc: inconclusive; 2A firefly: inconclusive

How did O=C(Nc1ccc(Cc2ccncc2)cc1)Nc1ccc(F)cc1F do in these assays?
StopGo RLuc: inconclusive; 2A firefly: 32%[activator]

What do the screens show for `C(#CCN1CCN(C(c2ccccc2)c2ccccc2)CC1)COCCOCc1ccccc1`?
StopGo RLuc: 0%; 2A firefly: 19%

What do the screens show for `Ic1cn[nH]c1`?
StopGo RLuc: -3%; 2A firefly: -5%

How did Cc1ccc(-c2n[nH]c(-c3ccc(C)cc3)c2C)cc1 do in these assays?
StopGo RLuc: 23%; 2A firefly: 204%[activator]

How did COc1ccc(NC2(c3nnnn3-c3ccc(C(C)C)cc3)CCCC2)cc1 do in these assays?
StopGo RLuc: 191%[activator]; 2A firefly: -16%

Results for Cn1nnc2c(NCCc3ccccc3)ncnc21 ?
StopGo RLuc: 2%; 2A firefly: 16%

Results for Cn1c(NCc2ccc3c(c2)OCO3)nc2c1c(=O)n(Cc1ccccc1Cl)c(=O)n2C ?
StopGo RLuc: -9%; 2A firefly: -2%

Results for COc1ccc(OCC(=O)Nc2nc(-c3ccc(Br)o3)ns2)cc1 ?
StopGo RLuc: -1%; 2A firefly: 112%[activator]

What do the screens show for `Cc1nc(/C=C/c2ccc(Cl)cc2)sc1C(=O)O`?
StopGo RLuc: 12%; 2A firefly: 0.89µM*

How did CC(=O)c1cccc(NC(=O)c2cc(C3CC3)nc3ccccc23)c1 do in these assays?
StopGo RLuc: 8%; 2A firefly: -2%

How did Cn1c(=O)c2c(nc(Oc3ccc4c(c3)OCO4)n2Cc2cccc(F)c2)n(C)c1=O do in these assays?
StopGo RLuc: -2%; 2A firefly: 7%

How did COc1cc(NC(=O)C(=O)NC(C)C)ccc1N1CCCCS1(=O)=O do in these assays?
StopGo RLuc: -1%; 2A firefly: 79%[activator]

What do the screens show for `C=CCOC(=O)C(C#N)c1nc2ccccc2nc1N1CCN(Cc2ccccc2)CC1` (centres undefined)?
StopGo RLuc: -6%; 2A firefly: -3%

Results for COc1ccccc1C(=O)Nc1c(C(=O)N2CCN(c3ccccc3F)CC2)oc2ccccc12 ?
StopGo RLuc: 12%; 2A firefly: -8%

How did O=C(COC(=O)c1nc(-c2ccccc2)n(-c2ccccc2)n1)Nc1cccc(Cl)c1 do in these assays?
StopGo RLuc: -3%; 2A firefly: 6%

How did COc1ccc(C(=O)OCc2ncc(-c3ccccc3)o2)c(OC)c1 do in these assays?
StopGo RLuc: 22%; 2A firefly: 72%[activator]

How did CCC(C)(C)NC(=O)C1CCC(CNS(=O)(=O)c2ccc3c(c2)CC(C)N3C(C)=O)CC1 (centres undefined) do in these assays?
StopGo RLuc: -3%; 2A firefly: -10%

Results for CCSc1nc2n(n1)C(c1ccc(O)c(OC)c1)C1=C(CC(C)(C)CC1=O)N2 (centres undefined) ?
StopGo RLuc: 6%; 2A firefly: 1%

What do the screens show for `O=C(CSc1nnc(-c2cccc(F)c2)c(-c2cccc(F)c2)n1)NC1CCCCC1`?
StopGo RLuc: 68%[activator]; 2A firefly: 40%[activator]

Eight entries out of the list, sorted by count of non-hydrogen atoms, largest number first:
Results for COc1ccccc1C(=O)Nc1c(C(=O)N2CCN(c3ccccc3F)CC2)oc2ccccc12 ?
StopGo RLuc: 12%; 2A firefly: -8%

How did CCC(C)(C)NC(=O)C1CCC(CNS(=O)(=O)c2ccc3c(c2)CC(C)N3C(C)=O)CC1 (centres undefined) do in these assays?
StopGo RLuc: -3%; 2A firefly: -10%

How did Cn1c(=O)c2c(nc(Oc3ccc4c(c3)OCO4)n2Cc2cccc(F)c2)n(C)c1=O do in these assays?
StopGo RLuc: -2%; 2A firefly: 7%

How did COc1ccc(NC2(c3nnnn3-c3ccc(C(C)C)cc3)CCCC2)cc1 do in these assays?
StopGo RLuc: 191%[activator]; 2A firefly: -16%

How did COc1ccc(C(=O)OCc2ncc(-c3ccccc3)o2)c(OC)c1 do in these assays?
StopGo RLuc: 22%; 2A firefly: 72%[activator]

Results for COc1ccc(OCC(=O)Nc2nc(-c3ccc(Br)o3)ns2)cc1 ?
StopGo RLuc: -1%; 2A firefly: 112%[activator]

Results for Cn1nnc2c(NCCc3ccccc3)ncnc21 ?
StopGo RLuc: 2%; 2A firefly: 16%

What do the screens show for `Cc1nc(/C=C/c2ccc(Cl)cc2)sc1C(=O)O`?
StopGo RLuc: 12%; 2A firefly: 0.89µM*

Carrying on.
What do the screens show for `CCc1noc(C)c1C(=O)OCC(=O)c1c[nH]c2c(CC)cccc12`?
StopGo RLuc: -4%; 2A firefly: 24%

What do the screens show for `Cc1ccc(C)c(C(=O)c2cc3ccccc3o2)c1`?
StopGo RLuc: 37%[activator]; 2A firefly: 10%

Results for C[C@H]1CC(=O)[C@@]23COC4OC(c5ccoc5)CC41[C@@H]2CCCC31CO1 (some centres undefined) ?
StopGo RLuc: -1%; 2A firefly: 8%

Results for CC(C)=CC(=O)NCCc1cccs1 ?
StopGo RLuc: 1%; 2A firefly: 112%[activator]

What do the screens show for `COC(=O)C(C)NC(=O)N1CCN(c2nnc(C)c3c(C)n(-c4ccc(Cl)cc4)nc23)CC1` (centres undefined)?
StopGo RLuc: -14%; 2A firefly: -17%

How did COc1ccc2[nH]c(C(=O)NCc3ccco3)cc2c1OC do in these assays?
StopGo RLuc: 31%[activator]; 2A firefly: 0%

How did CC1=C2C(=O)CC(c3ccc(F)cc3)CC2=Nc2ccccc2N1 (centres undefined) do in these assays?
StopGo RLuc: inconclusive; 2A firefly: inconclusive

What do the screens show for `CCOC(=O)c1cc(C)nc2c1c(=O)n(Cc1nc(-c3ccc(C(C)C)cc3)oc1C)c(=O)n2C`?
StopGo RLuc: 15%; 2A firefly: 1%

Results for CCOc1ccccc1NC(=O)c1cn(C2CCCC2)c(=O)c2c1c1ccccc1n2C ?
StopGo RLuc: -5%; 2A firefly: -17%

How did CC(=O)O[C@H]1C[C@@H]2CC[C@@H]3[C@H](CC[C@@]4(C)[C@H]3C[C@H]([N+]3(C)CCCCC3)[C@@H]4OC(C)=O)[C@@]2(C)C[C@@H]1N1CCCCC1 do in these assays?
StopGo RLuc: -15%; 2A firefly: -17%[11.5 µM]

How did Cc1csc(C(C#N)C(=O)CSc2ccc3c(c2)OCCCO3)n1 (centres undefined) do in these assays?
StopGo RLuc: 0%; 2A firefly: 0%

What do the screens show for `COc1cccc(NC(=O)C(=O)NCCc2csc(-c3ccc(C)cc3)n2)c1`?
StopGo RLuc: 3%; 2A firefly: 108%[activator]

Results for O=C(c1c[nH]c2ccccc12)C(Sc1cc(Cl)ccc1Cl)c1ccccc1 (centres undefined) ?
StopGo RLuc: 0%; 2A firefly: 11%

Results for CC(Nc1ccc(-c2nc(-c3ccncc3)no2)cc1[N+](=O)[O-])c1ccccc1 (centres undefined) ?
StopGo RLuc: 102%[activator]; 2A firefly: 176%[activator]

Results for C=C(C)CSc1nc2sc3c(c2c(=O)n1Cc1ccccc1)CC(C)(CC)OC3 (centres undefined) ?
StopGo RLuc: -5%; 2A firefly: 23%

How did CCCN(Cc1cc(=O)[nH]c2ccccc12)C(=O)Nc1ccc(OC)cc1OC do in these assays?
StopGo RLuc: -17%; 2A firefly: -13%

Source: PubChem BioAssay
